Screening data from PubChem.
HPGD inh: inhibitors of human 15-hydroxyprostaglandin dehydrogenase (HPGD); P15428; purified HPGD, NADH fluorescence kinetic, PGE2 substrate; Potency, µM, for inactives: top-dose activity change, negative = inhibition, actives largely listed as inhibitors; hit rate 4.3% among 150,000; AID 894; active = well fitted inhibition curve with a large enough effect (not every such curve was filed as active); inconclusive = small, poorly fitted or top-dose-only effect, or another doubt; inactive = no such curve, though single readings can be large or run the other way;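 note: top concentration of the series not given in the record; plate controls included wells without enzyme; inactives centre near -10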
Target sequence (P15428 whole entry, looked up): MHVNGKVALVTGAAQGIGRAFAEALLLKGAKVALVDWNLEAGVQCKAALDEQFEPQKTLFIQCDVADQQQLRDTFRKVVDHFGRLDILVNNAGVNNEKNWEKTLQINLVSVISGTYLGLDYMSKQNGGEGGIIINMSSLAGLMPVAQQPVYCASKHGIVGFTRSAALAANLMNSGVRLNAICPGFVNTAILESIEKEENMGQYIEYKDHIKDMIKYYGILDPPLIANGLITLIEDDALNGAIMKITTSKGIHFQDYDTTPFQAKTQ
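20 nM HPGD preincubated 15 min at room temperature with compound in 50 mM Tris-HCl pH 8, 0.01% Tween 20. Started with 1 mM NAD+ and 30 uM prostaglandin E2; NADH fluorescence (360/450 nm) read 5 times over 30-s intervals, last minus first.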
* = called active by the depositor; u = inconclusive; & = joins results of further samples. % is set by controls: 0 for no effect and ±100 for the full control effect; potency is the fitted concentration of half-maximal effect. These rows are one share of the data (hit frequency here may not be typical).

Structure,HPGD inh
O=C(Nc1ccc(Br)cc1)c1ccc(N2C(=O)C3CC=CCC3C2=O)cc1 (stereo unspecified),-23%
Cc1cc(-n2c(C)cc(C(=O)CSc3nnc4sc5ccccc5n34)c2C)no1,-20%
CCCCCOC(=O)C1=C(C)N(C)C(=O)NC1c1cc(Br)c(O)c(OC)c1 (stereo unspecified),-2%
CCSc1nc(=S)n(CC)c(C)c1C(C)=O,-10%
Cc1cc(C(F)(F)F)nc(SCC(=O)Nc2cc(C)on2)n1,-10%
CC1CCN(C(C(=O)NC2CCCCC2)c2cc3c(cc2[N+](=O)[O-])OCO3)CC1 (stereo unspecified),-29%
Cc1ccc(NC(=O)NC2CCCCC2)cc1Cl,-13%
CS(=O)(=O)N1CCc2cc(-c3csc(NCC4CCCO4)n3)ccc21 (stereo unspecified),40µM*
COC(=O)c1ccc(NCC(=O)c2ccccc2)cc1,18µM*
CCCCCCN(C(=O)CCCCCN1C(=O)NC(c2ccc(Cl)cc2)C(C(=O)OCc2ccccc2)=C1C)C(C(=O)NCCCC)c1ccc(OCC(=O)OC)c(C(=O)OC)c1 (stereo unspecified),-14%&-13%
CC(=O)NC1(c2cccc(F)c2)CCN(C(=O)Nc2ccc(C#N)cc2)CC1,-5%
COCC(=O)N1CCC2(CCCN(Cc3nccs3)C2)CC1,0%
COc1ccc(C(=O)N(C(C)C)C(C)C)c(OC)c1,-5%
CC(C)C(=O)NC(NC(=O)C(C)C)c1ccc([N+](=O)[O-])cc1,-14%
O=C(CNCCCO)Nc1cc(C(F)(F)F)cc(NC(=O)CNCCCO)c1Cl,-2%

In the list so far, these have fluorine:
Structure,HPGD inh
Cc1cc(C(F)(F)F)nc(SCC(=O)Nc2cc(C)on2)n1,-10%
CC(=O)NC1(c2cccc(F)c2)CCN(C(=O)Nc2ccc(C#N)cc2)CC1,-5%
O=C(CNCCCO)Nc1cc(C(F)(F)F)cc(NC(=O)CNCCCO)c1Cl,-2%

Additional entries
Structure,HPGD inh
CC/C(=N/Nc1cccc(Cl)c1)c1cnnc(SC)n1,-4%
Nc1nc(N)nc(CC(=O)O)n1,-13%
C=C1c2ccccc2O[C@H](C(=O)OCC)C1OC (mixture of isomers),-11%
Cc1cc(NC(=O)CSc2nnc(C3CC3)n2N)no1,1%
c1ccc2cc(-c3csnn3)ccc2c1,u
O=C(N/C(=C\c1cn(-c2ccccc2)nc1-c1ccc(Cl)cc1)C(=O)N1CCOCC1)c1ccccc1,-5%
N#Cc1ccccc1Sc1ccccc1C(=O)Nc1ccc(Br)cc1,-4%
Cc1ccccc1CSc1ncc(C#N)c(N)n1,-22%
COC(=O)CSc1nc(N)c(C#N)c(-c2ccco2)c1C#N,-11%
COc1cccc(OC)c1C(=O)Nc1ccc([N+](=O)[O-])cn1,-16%
CCOc1cnc(-c2ccc(Cl)cc2)o1,u
CC(COc1cccc2ccccc12)CN1CCN(C)CC1 (stereo unspecified),-13%
CCOC(=O)/C(C#N)=C1/C=CN(C)C=N1,25µM*
CCCCCCCCC[n+]1cccc2c3ccccc3ccc21,u
O=S1(=O)CCC(NC(=S)NC2CCS(=O)(=O)C2)C1 (stereo unspecified),-9%
CCN(CCC(=O)O)c1ccccc1,-6%
Cc1nc2c(c3c1[nH]c1ccccc13)C(=O)CC(C)(C)C2,u
COC(=O)c1cccc(S(=O)(=O)N(Cc2ccco2)Cc2cc3cc(OC)ccc3[nH]c2=O)c1,u
COC(=O)c1ccccc1NS(=O)(=O)c1ccc(O)c(C(=O)O)c1,-2%
N#C/C(C(=O)N1CCOCC1)=C1/SC(Cc2ccccc2)C(=O)N1c1ccccc1 (stereo unspecified),-10%
CC(C)c1nnc(NC(=O)C2CCCN2S(=O)(=O)c2ccc(Cl)cc2)s1 (stereo unspecified),-12%
COc1ccc(-n2c(=S)[nH]c3ccccc32)cc1,22µM*
Cc1ccc(/C=N/NC(=O)c2ccccc2OCc2ccc(F)cc2)o1,-24%
CCCCCCOC(=O)Cc1c(C)nc(-c2ccccc2)[nH]c1=O,-12%
N#C/C(=C\c1c(N2CCC(C(N)=O)CC2)nc2ccccn2c1=O)C(=O)NCc1ccco1,-11%
CCOC(=O)C(C)Oc1ccc2c(CC)cc(=O)oc2c1C (stereo unspecified),u
Cc1ccc(C)c(OCc2nnc(NC(=O)c3ccco3)s2)c1,u
Cc1oc2c(c1C(=O)Nc1cccc3ccccc13)CCCC2,-12%
COc1cc2[nH]c3c(N4CCC(C(N)=O)CC4)ncnc3c2cc1OC,-28%
CCCn1c(SCC(=O)NC(C)C23CC4CC(CC(C4)C2)C3)n[nH]c1=O (stereo unspecified),1%
Cc1nnc(N2C(=O)C(O)=C(C(=O)c3ccco3)C2c2ccc(C(C)C)cc2)s1 (stereo unspecified),-7%
CCOC(=S)N/C(=N\S(=O)(=O)c1ccccc1)c1ccccc1,u
Cc1ccc(SCc2nc(N)nc(Nc3ccccc3C)n2)cc1C,1%
Cn1c(=O)c2ncn(CC(=O)NC3CCCCCC3)c2n(C)c1=O,-10%
CCCNC(=O)c1c(N)n(-c2cccc(OC)c2)c2nc3ccccc3nc12,u
COc1cccc(N2C(=O)C3CCCN3C2c2ccc(N(C)C)cc2)c1 (stereo unspecified),-12%
O=C(Cc1ccccc1)NC(NC(=S)Nc1cc(Cl)ccc1Cl)C(Cl)(Cl)Cl (stereo unspecified),-16%
CC1(C)CC(=O)C2=C(C1)OC(N)=C(C#N)C2Cc1ccccc1 (stereo unspecified),-1%
Cc1c(NC(=O)C(C)OC(=O)CNC(=O)c2ccccc2)c(=O)n(-c2ccccc2)n1C (stereo unspecified),-6%
CC1CCC(C(C)C)C(OC(=O)COC(=O)c2ccc(=O)[nH]c2)C1 (stereo unspecified),-11%
COc1ccc(CN2C(=O)CC(Cc3cc(C)cc(C)c3)C2=O)cc1OC (stereo unspecified),-2%
Cc1ccc2nc(SCC(=O)c3ccc(Cl)s3)[nH]c2c1,-14%
CC(=O)Nc1ccc(S(=O)(=O)NCCSCc2ccc(Cl)cc2Cl)cc1,-11%
CC(Nc1ccc(Br)cc1)C(=O)N/N=C/c1ccccc1OCc1ccccc1 (stereo unspecified),1%
CCn1ncc(Br)c1C(=O)NC(C)c1ccccc1 (stereo unspecified),-5%
CC(C)CC(COCc1ccc([N+](=O)[O-])cc1)N1CCN(C(=O)c2ccc(C(F)(F)F)cc2)CCC1=O (stereo unspecified),-17%
N#CC1=C(N)Oc2n[nH]c(-c3ccccc3)c2C1c1cccnc1 (stereo unspecified),-13%
COCCCNCCOCCOc1ccc(Cl)cc1Br,-11%
N#Cc1ccc(C(=O)NCC(c2ccco2)N2CCCC2)cc1 (stereo unspecified),-10%
Cc1ccccc1SCC(=O)OCC(=O)Nc1sccc1C(N)=O,-22%
Cc1csc(NC(=O)CSc2nc(C)nc3c2c(=O)n(C)c(=O)n3C)n1,-1%
CC1CCCC(C)N1C(=O)CSc1nnc(C2CCCCC2)o1 (stereo unspecified),u
O=C1C=CC(=O)C(C2=C3C(=O)N(CCc4ccccc4)CC(=O)N3CCC2)=C1,1.6µM*
CC1=C/C(=C\c2ccc3c(c2)OCO3)C(=O)S1,-20%
O=C1CSC(c2ccccc2F)N1c1cc(Cl)ccc1O (stereo unspecified),-9%
CN1C2C=C3C(C#N)=C(N)C(C#N)(C#N)[C@H](c4c(F)cccc4F)[C@H]3C1CC2 (stereo partly specified),-9%
CCOC(=O)N1CCN(C(=O)c2ccc3c(c2)N(CC)CCS3)CC1,-20%
O=C1C2(c3ccccc3)CN(CCO)CC1(c1ccccc1)CN(CCO)C2,-18%
C=CCn1c(SCC(=O)Nc2sc(C)c(C)c2C(=O)OCC)nnc1-c1sc(N)nc1C,-7%
COC(=O)c1ccccc1NC(=O)CN(C1CCCCC1)S(C)(=O)=O,-1%

Next part.
Structure,HPGD inh
COC(=O)CNC(=O)CNC(=O)Nc1ccccc1,-8%
CCOCCCn1c(SCC(=O)NC(C)C)nc2ccccc2c1=O,-10%
c1ccc2c(c1)oc1c(N3CCN(Cc4ccc5c(c4)OCO5)CC3)ncnc12,-24%
CSc1ccccc1C(=O)Nc1ccc(C)c(C)c1,-14%
O=C(CSc1nc2nc3c(cc2c(=O)n1-c1ccccc1)CCCC3)Nc1cccc2ccccc12,-10%
CCN(CC)S(=O)(=O)c1cccc(-c2nnc(SCCCC(=O)c3ccccc3)o2)c1,-17%
COc1cccc(Nc2ccc(C(=O)O)cc2[N+](=O)[O-])c1,28µM*
CC(/C=N/NC(=O)c1cc(-c2ccc3ccccc3c2)n[nH]1)=C\c1ccco1,-11%
CCOC(=O)C1C(=O)OC(C)(C)C1C(C)C(=O)c1ccc(OC)cc1 (stereo unspecified),-11%
Oc1ccccc1CN(Cc1ccco1)CC(O)COCc1ccc(Cl)cc1 (stereo unspecified),-5%
COc1ccccc1-n1c(SCC(=O)Nc2ccc3c(c2)OCO3)nc2c(c1=O)SCC2,-18%
O=[N+]([O-])/C(=C\Nc1ccccc1)S(=O)(=O)c1ccccc1,-8%
CCOc1ccc(N(CC(=O)N/N=C/c2cc([N+](=O)[O-])ccc2Cl)S(C)(=O)=O)cc1,-8%
O=C1/C(=C/c2ccccc2)CSc2sccc21,u
O=[N+]([O-])c1ccccc1OCCCCN1CCCCC1,-2%
Cc1cc(NC(=O)COc2ccc3oc4ccccc4c3c2)no1,-16%
O=C(Nc1ncnc2c1ncn2C1OC(COC(=O)c2ccccc2)C(F)C1O)c1ccccc1 (stereo unspecified),-6%
O=c1cc(N2CCC3(CC2)OCCO3)[nH]c(=O)n1-c1ccc(Cl)cc1,-5%
COc1ccccc1NS(=O)(=O)c1ccc(NC(=O)c2nc3nc(C)cc(C(F)F)n3n2)cc1,u
Cc1ccc(NC(=O)CSc2nnc(-c3n[nH]c4ccccc34)n2-c2ccccc2)c(C)c1,-12%
Clc1ccc(CN(Cc2ccccc2)C(c2cccs2)c2nnnn2C2CCCC2)cc1 (stereo unspecified),4%
O=C(/C=C/c1ccc(Cl)cc1)NCCN1CCOCC1,-2%
CO/N=C/NC(=O)NOCc1ncc(C(F)(F)F)cc1Cl,-10%
Cc1ccc(S(=O)(=O)NNC(=S)Nc2ccccc2)cc1,11µM*
Nc1ccc2oc(-c3ccccc3Cl)nc2c1,-15%
COc1ccc(-n2c(C)cc(C(=O)COc3ccc(-n4cnnn4)cc3)c2C)cc1,-6%
O=C1c2ccccc2C(=O)N1CCCCSc1nnc(-c2ccc(OC(F)F)cc2)o1,-9%
O=C(Nc1ccc([N+](=O)[O-])cn1)C1CC2CCC1C2 (stereo unspecified),1%
O=[N+]([O-])c1ccc(-c2ccc(/C=N/c3c(-c4ccco4)nc4ccccn34)o2)cc1,-2%
COc1ccc(N=Nc2nc3cc(Br)c(Br)cc3n2C)c(OC)c1,7.9µM*

Two successive records out of the list so far:
Structure,HPGD inh
O=[N+]([O-])c1ccc(-c2ccc(/C=N/c3c(-c4ccco4)nc4ccccn34)o2)cc1,-2%
COc1ccc(N=Nc2nc3cc(Br)c(Br)cc3n2C)c(OC)c1,7.9µM*

(listing goes on)
Structure,HPGD inh
CCOC(=O)c1c(C)[nH]c(C)c1C(=O)COc1ccc(NC(=O)c2ccco2)cc1,-15%
CCSc1nnc(C)c(=O)n1COC(=O)c1ccc(S(=O)(=O)N2CCCC2)cc1,-19%
CNC(=O)[C@@]1(C)C=C[C@@H](Cc2ccccc2)N1C(=O)OC,-4%&-12%
O=C(CN1CCN(Cc2ccccc2F)C1=O)NCCc1ccc(Cl)cc1,0%
CCCCNC(=S)NNC(=O)c1ccco1,-14%
Cc1cc(C(=O)CN2C(=O)NC(Cc3c[nH]c4ccccc34)C2=O)c(C)n1C (stereo unspecified),-5%
COc1ccc(N2CCN(CCCNC(=O)CCCn3c(=O)[nH]c4ccsc4c3=O)CC2)cc1,-9%
CCCn1c(=S)[nH]c2cc(C(=O)N3CCc4ccccc43)ccc2c1=O,-11%
N#CN=C(N)c1ccccc1,-12%
Cc1cc(C)c(C#N)c(SCC(=O)N2CCN(Cc3ccccc3)CC2)n1,-21%
CC1CCN(C(=O)CSc2nnc(-c3ccco3)o2)CC1,-14%
CCC(C)C(NC(=O)c1ccccc1NC(=O)c1ccccc1)C(=O)N1CCOCC1 (stereo unspecified),-9%
CCOc1ccc(N2C(=O)CCC2=O)cc1,3%
Cc1ccc(C)c(OCC(=O)Nc2ccc(S(=O)(=O)Nc3ccccn3)cc2)c1C,-20%
CCCOc1ccc(C(O)C(CN2CCOCC2)c2ccccc2)cc1 (stereo unspecified),1%
C=CCN1C(=O)C(Cc2ccc(C)cc2)S/C1=N/N=C/c1ccco1 (stereo unspecified),-22%

Ordered by the number under HPGD inh (falling): some entries from above
Structure,HPGD inh
CCCn1c(=S)[nH]c2cc(C(=O)N3CCc4ccccc43)ccc2c1=O,-11%
N#CN=C(N)c1ccccc1,-12%
C=CCN1C(=O)C(Cc2ccc(C)cc2)S/C1=N/N=C/c1ccco1 (stereo unspecified),-22%
